# PABP polyA inh – blocks human PABP binding to poly(A) RNA. inhibition, % at 35 µM. fluorescence polarization. 290,000 tested, 1% active. AID 2014;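 active = 50% or more with normal probe brightness, or confirmed in later tests; about a fifth of its hits are not listed in these tables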;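 note: calls also rest on retests at 20 µM and on dose response follow-up; controls were probe without protein and protein plus probe with vehicle; some compounds called inactive have numbers as strong as hits; many hits fall short of the cut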
# Yeast UUG start – alters start codon recognition fidelity in yeast; S. cerevisiae UUG-firefly luciferase reporter, luminescence/redox ratio; activity score, % at 18.7 µM; 350,000 tested, 0.13% active; AID 602363;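 active = replicate mean at a twofold rise or more, about +100% in these data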;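 note: firefly luciferase made from a UUG start codon reports start codon fidelity; reporter light over untreated wells divided by growth signal over untreated wells; some hits fall short of that in this replicate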
# CSC inhib – blocks cancer stem cells; 300,000 tested, 1.1% active; inhibition, % at 7.5 µM; AID 2717; cancer stem cell-like cells viability, luminescence;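 active = mean at 75% or more and at least half the replicates too; tested in HMLE shEcad cells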;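 note: 0% = median of negative and 100% = median of positive control wells; the first replicate is given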
# MT1-MMP act inh – MT1-MMP (human) activation inhibition. HT1080 RFP-PRO-GFP cells, GFP/RFP ratio fluorescence, overnight; percent of plate control window, DMSO zero. AID 651647. P50281. GFP/RFP ratio change, % at 20 µM. 360,000 tested, 0.061% active;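 active = GFP/RFP ratio change of at least 30% with cell ATP level not reduced by more than half and red fluorescence within 50% of control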; note: strong numbers were not always called active
#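 Assay system – RFP-PRO-GFP reporter HT1080 cells · Compound dosing – single dose of 20 µM compound, 1% DMSO final · Incubation – overnight compound exposure at 37 °C · Measure – GFP/RFP fluorescence ratio · Benchmarks – DMSO wells and RFP-L50D-GFP cells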
# eIF4H inh – inhibitors of RNA binding by human eIF4H; Q15056; eIF4H fluorescence polarization binding assay; inhibition, % at 35 µM; 290,000 tested, 0.94% active; AID 2012;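 active = 50% or more with normal probe brightness, or confirmed in later tests; about a fifth of its hits are not listed in these tables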;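 note: calls also rest on retests at 20 µM and on dose response follow-up; 0% = protein and probe with vehicle and 100% = probe without protein; strong numbers were not always called active; many hits fall short of the cut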
# Rce1 inh – yeast Ras-converting enzyme inhibition. Q03530. yeast membranes, quenched prenylated peptide cleavage fluorescence. calls only. 290,000 tested, 0.27% active;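 active = fall in fluorescence gain of 50% or more versus controls, with final raw signal at or below 3038400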;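 note: plate controls were neutral control wells for no effect and wells lacking membranes for full effect; tested at 10 µM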
# Target sequence (Q03530 whole entry, looked up): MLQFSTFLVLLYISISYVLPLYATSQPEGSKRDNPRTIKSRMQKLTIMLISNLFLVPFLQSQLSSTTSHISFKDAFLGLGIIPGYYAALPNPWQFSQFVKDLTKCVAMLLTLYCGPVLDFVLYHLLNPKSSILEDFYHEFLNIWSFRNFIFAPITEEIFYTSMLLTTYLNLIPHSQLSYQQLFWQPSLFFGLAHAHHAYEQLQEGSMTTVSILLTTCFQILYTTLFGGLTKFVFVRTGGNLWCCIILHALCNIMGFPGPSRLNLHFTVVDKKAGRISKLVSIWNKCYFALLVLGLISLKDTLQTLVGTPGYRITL
# Env fusion inh – HIV envelope-mediated fusion inhibition | AID 651610 | inhibition, % at 12.3 µM | HeLa-JRFL Env/CEM21 cell fusion, luciferase | 360,000 tested, 1.1% active;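 active = mean replicate inhibition score of at least 50 and every replicate individually at or above 50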;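 note: 0% = plate neutral controls and 100% = maraviroc near 300 nM; one replicate is shown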
# eIF4H inh retest – further read-out of eIF4H inh, marked with its call; inhibition, %; compound at 20 µM; confirmation average;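 mean of two retest wells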
# PABP polyA inh retest – further read-out of PABP polyA inh, marked with its call; inhibition, %; compound at 20 µM; confirmation repeats;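 mean of two retest wells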
# MT1-MMP act inh RFP – further read-out of MT1-MMP act inh, marked with its call; RFP signal change, %; measured here: RFP expression control read;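 0 = vehicle wells; hits needed this value within 50% of zero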
# Active calls of the source: *; i = inactive; . = no result given.
SMILES,PABP polyA inh,Yeast UUG start,CSC inhib,MT1-MMP act inh,MT1-MMP act inh RFP,eIF4H inh,Rce1 inh,Env fusion inh,others
O=C(CC1SC(N2CCCCC2)=NC1=O)Nc1ccc(C(=O)NCCc2ccc(F)cc2)cc1 (configuration not stated),.,-5.7,1.8,9.2,1.2,.,.,-1.6,
Cc1cnc(NC(=O)CSc2ccccc2)s1,2.2,0.0,-4.9,3.4,0.9,0.6,i,.,
COC(=O)C(CC(=O)c1ccc(Cl)cc1)c1ccc(C(C)C)cc1 (configuration not stated),-5.9,-14.4,.,0.2,-7.1,-12.9,i,.,
C#CCn1c(=NC(=O)CSCC(=O)N2CCOCC2)sc2ccccc21,-5.9,-8.9,-5.8,-0.8,2.7,-2.1,.,2.1,
Cn1c2ccccc2c2cnn(CC(=O)Nc3ccc(F)cc3F)c(=O)c21,-14.1,0.2,8.7,3.2,0.7,-9.1,i,-30.1,
CCNC(=O)COC(=O)c1cc(-c2ccc(OC)cc2)nc2ccccc12,-5.7,6.1,7.6,-1.3,-1.1,-4.9,i,-37.7,
COc1ccc(CNC(=O)N2CCc3ccccc3C2)cc1Cl,6.6,-0.8,14.8,2.7,0.6,4.3,i,-2.8,
Cc1ccc(OCC(=O)c2ccc(Cl)s2)c([N+](=O)[O-])n1,4.9,.,-8.3,-7.8,4.6,81.6,i,-3.4,eIF4H inh retest=-11.6;PABP polyA inh retest=4.2
CN(C)S(=O)(=O)c1cc(C(=O)NCCCn2ccc3ccccc32)ccc1Cl,-9.9,-10.4,0.4,0.2,4.3,4.3,i,-310.1,
COc1ccccc1NS(=O)(=O)c1ccc(C)c(NS(=O)(=O)c2cc(C(=O)O)cc(C)c2C)c1,-5.8,-0.1,.,-3.2,3.9,-8.2,i,-20.6,

# By substructure: those above containing a halogen.
SMILES,PABP polyA inh,Yeast UUG start,CSC inhib,MT1-MMP act inh,MT1-MMP act inh RFP,eIF4H inh,Rce1 inh,Env fusion inh,others
O=C(CC1SC(N2CCCCC2)=NC1=O)Nc1ccc(C(=O)NCCc2ccc(F)cc2)cc1 (configuration not stated),.,-5.7,1.8,9.2,1.2,.,.,-1.6,
COC(=O)C(CC(=O)c1ccc(Cl)cc1)c1ccc(C(C)C)cc1 (configuration not stated),-5.9,-14.4,.,0.2,-7.1,-12.9,i,.,
Cn1c2ccccc2c2cnn(CC(=O)Nc3ccc(F)cc3F)c(=O)c21,-14.1,0.2,8.7,3.2,0.7,-9.1,i,-30.1,
COc1ccc(CNC(=O)N2CCc3ccccc3C2)cc1Cl,6.6,-0.8,14.8,2.7,0.6,4.3,i,-2.8,
Cc1ccc(OCC(=O)c2ccc(Cl)s2)c([N+](=O)[O-])n1,4.9,.,-8.3,-7.8,4.6,81.6,i,-3.4,eIF4H inh retest=-11.6;PABP polyA inh retest=4.2
CN(C)S(=O)(=O)c1cc(C(=O)NCCCn2ccc3ccccc32)ccc1Cl,-9.9,-10.4,0.4,0.2,4.3,4.3,i,-310.1,

# (next part)
SMILES,PABP polyA inh,Yeast UUG start,CSC inhib,MT1-MMP act inh,MT1-MMP act inh RFP,eIF4H inh,Rce1 inh,Env fusion inh,others
COc1cc(C2C(C#N)=C(N)Oc3c2ccc2ccccc32)ccc1OCC(=O)Nc1cccc(C)c1 (configuration not stated),-8.6,-20.4,14.7,-4.0,-22.8,-3.5,i,.,
C=CCNC(=O)/C(C#N)=C/c1ccc(C)o1,0.8,.,4.4,1.8,7.4,13.9,i,-15.0,
CCCCNC(=O)CC1SC(=NCC)N(CC)C1=O (configuration not stated),0.7,-11.4,0.7,0.7,1.8,-6.2,i,-92.5,
COCC(C)n1c(SCC(=O)Nc2nccs2)nc2ccccc2c1=O (configuration not stated),.,-5.5,.,0.3,-1.5,.,.,-20.0,
Cc1ccc(NC(=O)CSc2nnc(C3CC3)n2N)cc1S(=O)(=O)N1CCOCC1,-1.2,.,-18.6,2.1,3.8,7.1,i,1.7,
Nc1nnn(CC(=O)N/N=C/c2ccncc2)n1,3.6,0.5,-7.2,-1.8,1.9,-6.1,i,16.3,
C[C@H](NC(=O)c1nc[nH]c1C(=O)NCCCCCNC(=O)OC(C)(C)C)C(=O)OC(C)(C)C,-4.0,0.3,-11.1,2.1,-14.2,-10.3,i,11.0,
C/C(O)=c1/cnc2nc3ccccc3n2c1=O,0.1,.,-1.3,0.8,2.5,-4.4,i,-44.3,
COC(=O)c1cc(S(=O)(=O)Nc2cccc(-c3ccno3)c2)c[nH]1,.,-20.8,.,1.8,-15.5,.,.,9.9,
CCC(C)n1[nH]c(=O)cc1N (configuration not stated),4.0,-18.0,.,6.0,7.6,0.7,i,.,

# A stretch from further up, as a working copy:
SMILES,PABP polyA inh,Yeast UUG start,CSC inhib,MT1-MMP act inh,MT1-MMP act inh RFP,eIF4H inh,Rce1 inh,Env fusion inh,others
COCC(C)n1c(SCC(=O)Nc2nccs2)nc2ccccc2c1=O (configuration not stated),.,-5.5,.,0.3,-1.5,.,.,-20.0,
Cc1ccc(NC(=O)CSc2nnc(C3CC3)n2N)cc1S(=O)(=O)N1CCOCC1,-1.2,.,-18.6,2.1,3.8,7.1,i,1.7,
Nc1nnn(CC(=O)N/N=C/c2ccncc2)n1,3.6,0.5,-7.2,-1.8,1.9,-6.1,i,16.3,
C[C@H](NC(=O)c1nc[nH]c1C(=O)NCCCCCNC(=O)OC(C)(C)C)C(=O)OC(C)(C)C,-4.0,0.3,-11.1,2.1,-14.2,-10.3,i,11.0,
C/C(O)=c1/cnc2nc3ccccc3n2c1=O,0.1,.,-1.3,0.8,2.5,-4.4,i,-44.3,

# New compounds follow:
SMILES,PABP polyA inh,Yeast UUG start,CSC inhib,MT1-MMP act inh,MT1-MMP act inh RFP,eIF4H inh,Rce1 inh,Env fusion inh,others
O=P(Cc1cccc[n+]1[O-])(c1ccccc1)c1ccccc1,1.9,9.8,-2.6,1.8,5.8,3.4,i,-4.9,
C/C(=N\NC(=O)c1cccc(F)c1)c1ccc(NC(=O)Cc2ccccc2)cc1,6.9,-2.1,-7.1,0.1,-0.4,3.3,i,-4.9,
COc1cc([C@@H]2c3cc4c(cc3[C@@H](NC3CCN(Cc5ccccc5)CC3)[C@H]3COC(=O)[C@H]23)OCO4)cc(OC)c1O,3.7,.,.,.,.,-13.2,i,.,
O=C(O)c1cccc(NC(=O)C2C3C=CC(C3)C2C(=O)OCC(F)(F)C(F)F)c1 (configuration not stated),11.8,-4.4,-1.6,-2.3,0.8,3.1,i,.,
Cc1nnc(N2CCc3ccccc3C2)[nH]c1=O,7.0,-21.0,-1.5,1.2,2.3,-8.0,i,.,
O=C(NCCc1ccccc1)c1cccc([N+](=O)[O-])c1,-9.1,5.7,-10.5,2.1,-1.0,-0.8,i,-21.6,
O=C(c1ccco1)N1CCN(S(=O)(=O)c2cccc(C(F)(F)F)c2)CC1,-5.9,-4.7,.,1.3,-0.1,-0.8,i,-17.7,
O=C(CSc1nnc2c(n1)[nH]c1ccccc12)N1CCCCC1,1.6,-11.2,-13.3,3.3,-0.2,2.0,i,2.5,
COC(=O)c1cn(Cc2cccc(C)c2)nn1,3.0,-2.9,-6.1,1.6,0.5,5.9,i,.,
O=C(Nc1ccc(OCC(=O)N2CCOCC2)cc1)c1cncc(Br)c1,1.9,-0.4,-5.5,-2.0,-2.1,-1.6,i,57.0*,
CCOC(=O)C(=O)Nc1ccccc1C(=O)Nc1ccc(OC)cc1,2.1,-15.1,-14.2,0.3,-2.3,-9.1,i,.,
CCc1ccc(OCCSc2nc3ccccc3n2CC(=O)O)cc1,2.2,-4.7,-4.8,-0.2,2.9,0.0,i,8.0,

# Assay outcomes: PubChem BioAssay, several laboratories

# Only part of the results is shown (hit frequency here may not be typical).
